# High-throughput results deposited in PubChem by several laboratories.
# CSC inhib = blocks cancer stem cells; cancer stem cell-like cells viability, luminescence; hit rate 1.1% among 300,000; inhibition, % at 7.5 µM;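 active = mean at 75% or more and at least half the replicates too; inconclusive = mean and replicates disagree; tested in HMLE shEcad cells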;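 note: 0% = median of negative and 100% = median of positive control wells; the first replicate is given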
# eIF4H FP inh = inhibitors of RNA binding by human eIF4H. Q15056. eIF4H fluorescence polarization binding assay. inhibition, % at 35 µM. hit rate 0.94% among 290,000;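 active = 50% or more with normal probe brightness, or confirmed in later tests; inconclusive = above 50% with abnormal brightness, or retests that disagree; inactive = below 50% or failed in later tests; about a fifth of its hits are not listed in these tables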;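 note: calls also rest on retests at 20 µM and on dose response follow-up; 0% = protein and probe with vehicle and 100% = probe without protein; strong numbers were not always called active; many hits fall short of the cut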
# PABP polyA inh = PABP-poly(A) binding inhibition; P11940; PABP-poly(A) RNA binding, fluorescence polarization; inhibition, % at 35 µM; hit rate 1% among 290,000;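 active = 50% or more with normal probe brightness, or confirmed in later tests; inconclusive = above 50% with abnormal brightness, or retests that disagree; inactive = below 50% or failed in later tests; about a fifth of its hits are not listed in these tables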;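 note: calls also rest on retests at 20 µM and on dose response follow-up; controls were probe without protein and protein plus probe with vehicle; some compounds called inactive have numbers as strong as hits; many hits fall short of the cut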
# Target sequence (P11940 whole entry, looked up): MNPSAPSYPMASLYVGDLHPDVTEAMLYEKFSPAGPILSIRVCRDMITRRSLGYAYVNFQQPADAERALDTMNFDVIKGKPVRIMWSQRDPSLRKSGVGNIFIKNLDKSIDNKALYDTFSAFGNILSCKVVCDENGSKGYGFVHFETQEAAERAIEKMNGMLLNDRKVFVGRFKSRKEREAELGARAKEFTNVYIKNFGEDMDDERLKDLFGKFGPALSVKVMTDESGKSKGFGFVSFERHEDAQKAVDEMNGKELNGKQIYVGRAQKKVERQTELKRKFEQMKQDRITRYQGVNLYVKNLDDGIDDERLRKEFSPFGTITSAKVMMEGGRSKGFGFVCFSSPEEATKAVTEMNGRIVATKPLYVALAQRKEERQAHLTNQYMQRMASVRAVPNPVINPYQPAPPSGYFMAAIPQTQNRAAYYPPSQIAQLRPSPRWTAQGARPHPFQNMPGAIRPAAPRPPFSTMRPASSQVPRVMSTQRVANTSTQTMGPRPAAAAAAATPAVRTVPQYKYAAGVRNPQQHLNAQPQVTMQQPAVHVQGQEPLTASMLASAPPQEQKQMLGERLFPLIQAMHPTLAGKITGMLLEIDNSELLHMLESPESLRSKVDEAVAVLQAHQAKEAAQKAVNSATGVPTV
# Rce1 inh = yeast Ras-converting enzyme inhibition | Q03530 | yeast membranes, quenched prenylated peptide cleavage fluorescence | calls only | hit rate 0.27% among 290,000;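 active = fall in fluorescence gain of 50% or more versus controls, with final raw signal at or below 3038400; inconclusive = same 50% fall but final raw signal above 3038400; inactive = fall in fluorescence gain under 50%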;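 note: plate controls were neutral control wells for no effect and wells lacking membranes for full effect; tested at 10 µM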
# PABP polyA inh retest = recorded beside PABP polyA inh, whose call it bears; inhibition, %; compound at 20 µM; confirmation repeats;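 mean of two retest wells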
# * marks the source's active call; other numbers are inactive results; i = inactive; ? = inconclusive; · = not tested or not shown.
SMILES,CSC inhib,eIF4H FP inh,PABP polyA inh,Rce1 inh,others
CCOc1ccc(N2CCCCn3c2nc2c3c(=O)[nH]c(=O)n2C)cc1,·,-1.9,-1.3,·,
COc1ccc(S(=O)(=O)Cc2ccc(C(=O)NCc3ccc(F)cc3)o2)cc1,·,3.1,-6.3,·,
COc1ccc(Cl)cc1Nc1nc(N2CCCC2)nc(N2CCCC2)n1,·,4.2,-15.9,·,
CCC(c1nnnn1C(C)(C)C)N(CCOC)Cc1cc2cccc(C)c2n2nnnc12 (stereo not given),·,-9.9,-2.6,·,
CCn1cc(C(=O)NCc2ccc(OC)cc2OC)c(=O)c2ccc(C)nc21,·,-0.1,6.3,·,
Cc1cc2ccccc2n2c(SCC(=O)N3CCN(C(=O)c4ccco4)CC3)nnc12,·,-4.8,0.2,·,
COCCNc1nnnc2c1sc1nc(N3CCOCC3)c3c(c12)CCCC3,·,-8.4,4.6,·,
Cc1cccc(NC(=O)c2snc3c(=O)[nH]cnc23)c1,·,-2.1,-6.2,·,
CCOc1cc(N2CCOCC2)c(OCC)cc1NC(=O)c1ccc(=O)n(Cc2ccccc2)n1,·,-3.8,-7.1,·,
CC(C)CCOc1ccc(C(=O)CCNC(C)C(=O)O)cc1 (stereo not given),·,5.8,-2.5,·,
Cn1c(=O)c2c(nc(NCCCN3CCOCC3)n2Cc2ccc(Cl)cc2Cl)n(C)c1=O,·,0.8,12.6,·,
O=C(Nc1ccc(N2CCOCC2)c(C(=O)O)c1)c1ccco1,·,7.9,-0.3,·,
COc1ccccc1-c1nn2c(-c3ccc(C(C)(C)C)cc3)nnc2s1,·,-4.3,-4.7,·,
Cc1cccc(NC(=O)c2c(O)c3cccc4c3n(c2=O)CCC4)n1,·,-2.6,-3.5,·,
O=C(CSc1nnc(-c2ccc(Cl)s2)o1)N1CCOCC1,·,-3.0,6.1,·,
N#CC(=C1N=c2ccccc2=N1)c1c(O)[nH]c2ccccc12,·,13.7,7.1,·,
COc1ccccc1-c1nnc(NC(=O)c2ccc(S(=O)(=O)N(C)Cc3ccccc3)cc2)o1,·,3.3,-2.7,·,
CCN(CC)c1ccc2cc(C(=O)Nc3cccnc3N3CCOCC3)c(=O)oc2c1,·,63.1*,72.7*,·,
CC1=C(C(=O)Nc2ccccc2)C(c2sccc2C)n2nnnc2N1 (stereo not given),·,7.5,-0.1,·,
Cc1ccc2c(COC(=O)c3cnc(C)cn3)cc(=O)oc2c1,·,-4.3,-8.2,·,
Nc1sc(-c2ccccc2)cc1C(=O)O,·,4.1,14.2,·,
CCCc1nc(N2CCOCC2)c2sc(=S)n(-c3ccccc3)c2n1,·,-9.9,-1.4,·,
Cn1c(=O)oc2cc(S(=O)(=O)N3CCCC(C(=O)N4CCn5c4nc4ccccc45)C3)ccc21 (stereo not given),·,-4.8,-19.2,·,
Cc1sc2nc3c(C(=O)N4CCN(c5ccccn5)CC4)cccn3c(=O)c2c1C,·,-15.0,6.9,·,
CCOC(=O)CC1C(=O)NCCN1c1nc2c(C)cccn2c(=O)c1/C=C1\SC(=S)N(CC(C)C)C1=O (stereo not given),·,?,?,·,
# Next part:
SMILES,CSC inhib,eIF4H FP inh,PABP polyA inh,Rce1 inh,others
COc1ccc(N2CCn3c2nc2c3c(=O)n(CCc3ccccc3)c(=O)n2C)cc1,·,4.7,27.2,·,
CCN1CCN(C(=O)c2cc3c(=O)n4ccccc4nc3n2Cc2ccccc2)CC1,·,-2.6,-5.0,·,
Cc1ccc(-n2ncc3c2ncn2c(-c4ccncc4)nnc32)cc1,·,-4.0,-0.2,·,
Cc1ccc(C)c(CSc2nc(-c3ccco3)nc3c2c(=O)n(C)c(=O)n3C)c1,·,-3.5,6.3,·,
Cc1ccnc2ccc(P(=O)(c3ccccc3)c3ccccc3)cc12,·,-6.6,0.0,·,
COc1cc(-n2c(C)nc3cc(C(=O)NCCN4CCOCC4)ccc32)cc(OC)c1OC,·,-1.9,-0.2,·,
CCC(C)n1c(C)nc2c(c1=O)c1nc3ccccc3nc1n2-c1ccc2c(c1)OCCO2 (stereo not given),·,3.3,-5.3,·,
NC(=O)[C@@H]1CCNc2c(I)cc([N+](=O)[O-])cc2C(=O)N[C@@H](CO)C(=O)N[C@@H](Cc2ccc(O)cc2)C(=O)N1,·,9.8,-7.0,·,
CC(C)[C@@H]1NC(=O)c2cc([N+](=O)[O-])cc(F)c2NCCC[C@@H](C(N)=O)NC(=O)[C@H](CO)NC1=O,·,1.0,-5.5,·,
Cc1sc2nc(C(C)Sc3nnc(C)n3-c3ccccc3)[nH]c(=O)c2c1C (stereo not given),·,-4.1,10.9,·,
COC(=O)c1ccc(C2C(C(=O)OC(C)C)=C(C)N=C3SCCC(=O)N32)cc1 (stereo not given),·,4.3,0.8,·,
Cc1ccc(C2C(C(=O)c3sc(C)nc3C)=C(O)C(=O)N2CCCN(C)C)o1 (stereo not given),·,-1.1,-1.5,·,
CCCN1C(=O)/C(=C/c2c(N3CCNC(=O)C3CC(=O)OC)nc3c(C)cccn3c2=O)SC1=S (stereo not given),·,?,?,·,
Cc1ccc(Cn2ccc(NC(=O)c3cc4nc5c(c(C(F)(F)F)n4n3)CCc3ccccc3-5)n2)cc1,·,-9.8,-12.6,·,
COc1cc2cc(CN(Cc3nnnn3C3CCCC3)C3CCCC3)c(=O)[nH]c2cc1OC,·,1.1,-3.0,·,
CCCOc1nc2c(c(=O)n(C)c(=O)n2C)n1CC,·,14.8,-6.3,·,
CC(C)CN(C(=O)COC(=O)c1cc2ccccc2oc1=O)C1CCS(=O)(=O)C1 (stereo not given),·,-0.1,-13.6,·,
Cc1ccc(S(=O)(=O)N2CCC(C(=O)Nc3nnc(C45CC6CC(CC(C6)C4)C5)s3)CC2)cc1,·,-3.8,-5.6,·,
Cc1ccc(N2CCN(CC(=O)Nc3c(C(=O)C4CC4)oc4ccccc34)CC2)cc1,·,4.6,-14.7,·,
Cc1nc(NC2=NC(C(=O)Nc3ccc(Cl)cc3)CC(=O)N2)nc2ccccc12 (stereo not given),·,3.6,5.6,·,
Cc1nccc2[nH]c(=O)c(C(=O)NCCCN(C)C3CCCCC3)cc12,·,-5.9,3.3,·,
O=c1c2ccccc2nc2n1CC/C2=C\c1ccccc1[N+](=O)[O-],·,-12.5,-4.0,·,
Cc1ccc(-n2c3c(cc(C(=O)Nc4cccc(C)n4)c2=O)C(=O)CCC3)cc1,·,-3.6,24.7,·,
O=c1c2ccccc2nc(SCc2cc(=O)n3ccsc3n2)n1CCCO,·,16.6,9.5,·,
c1ccc2c(c1)nc(N1CCN(C3CCCCC3)CC1)c1nnnn12,·,27.5,33.1,·,
# Further compounds follow.
SMILES,CSC inhib,eIF4H FP inh,PABP polyA inh,Rce1 inh,others
O=c1[nH]c(CSc2nnc(-c3ccco3)n2-c2ccccc2)nc2sc3c(c12)CCC3,·,2.5,6.5,·,
COc1ccc(C)cc1Nc1n[n+](C)c(-c2ccc(C(=O)O)cc2)s1,·,-3.1,31.4,·,
Cc1nnc(NC(=O)c2oc3cc(C)c(C)cc3c2C)s1,·,-4.7,4.8,·,
COC(=O)c1cc2oc(C)cc2n1CC(=O)Nc1ccc(OC)c(OC)c1OC,·,7.5,6.6,·,
CC(=O)Nc1nc2c(c3c1c(=O)oc1ccccc13)CCCC2,·,-3.3,-2.4,·,
COc1ccc(Cn2c3nc4ccccc4nc3c3c(=O)n(Cc4ccco4)cnc32)cc1,·,45.0,38.4,·,
Cc1ccc(N2C(=O)N(CC(=O)C(C)(C)C)c3ccccc3S2(=O)=O)cc1,·,-2.6,-5.0,·,
O=c1[nH][nH]c(=S)n1-c1ccccc1C(F)(F)F,·,-4.9,-1.5,·,
C[C@@H]1NC(=O)c2cc([N+](=O)[O-])cc(I)c2OCC[C@@H](C(N)=O)NC(=O)[C@H](CCC(=O)O)NC1=O,·,9.6,6.5,·,
CCOC(=O)c1cnc(-n2nc(C)cc2C)nc1Nc1ccc2c(c1)OCO2,·,5.9,-11.1,·,
O=C(CCCN1C(=O)/C(=C/c2cccs2)SC1=S)Nc1ccc(O)c(C(=O)O)c1,·,2.2,17.8,·,
O=[N+]([O-])c1cc(CN2CCOCC2)c2cccnc2c1O,·,?,4.2,·,PABP polyA inh retest=49.6
Cc1ccc(C)c(N(CC(=O)NC2CCCCC2)C(=O)CCC(=O)Nc2ccccn2)c1,·,1.0,15.0,·,
CCOC(=O)C(Sc1ncnc2c1sc1nc(N3CCOCC3)c3c(c12)CCCC3)c1ccccc1 (stereo not given),·,-11.4,-3.6,·,
Cc1nn(-c2ccccc2)c2sc(C(=O)C(C#N)c3ccccn3)cc12 (stereo not given),·,1.7,0.9,·,
O=C(c1noc2c1CCc1ccccc1-2)N1CCc2ccccc2C1,·,14.0,47.6,·,
Cc1cccn2c(=O)c3cc(C(=O)NCCN4CCOCC4)n(Cc4ccccc4)c3nc12,·,5.5,4.6,·,
Cc1ccc(-c2nn3c(-c4ccco4)nnc3c3ccccc23)cc1S(=O)(=O)N1CCOCC1,·,-6.2,1.2,·,
O=C(O)C[C@@H]1C(=O)O[C@@H]2C(COC(=O)c3cc(O)c(O)c(O)c3)O[C@@H](OC(=O)c3cc(O)c(O)c(O)c3)[C@@H](OC(=O)c3cc(O)c(O)c4c3[C@H]1[C@H](O)C(=O)O4)[C@H]2OC(=O)c1cc(O)c(O)c(O)c1 (stereo not given in full),·,86.9*,90.7*,·,
COC(=O)c1ccccc1NC(=O)CN1CCC(n2nnc3cc(C)ccc32)CC1,·,2.5,-1.2,·,
COC(=O)c1ccc(OC(=O)c2ccc(OCc3c(C)noc3C)c(OC)c2)cc1,·,10.2,5.6,·,
O=c1[nH]c(CN2CCC(c3nc4ccccc4s3)CC2)nc2sc3c(c12)CCC3,·,-7.1,-2.2,·,
CCOC(=O)N1CCC(NC(=O)Cn2c3ccccc3c3cn[nH]c(=O)c32)CC1,·,-0.7,3.8,·,
Cc1ccc(Nc2nc(C3CC3)cs2)cc1,·,-11.1,4.4,·,
CNC(C)C#Cc1ccc2sc3cc(OC)c(OC)cc3c(=O)c2c1 (stereo not given),44.9,·,·,i,
CCOC(=O)c1cnn(-c2ncnc3c2cnn3Cc2ccccc2)c1N,1.9,·,·,i,
COC(=O)CCC(=O)OC1(C)C(=O)C=C2C=C(C3CC3)OC=C2C1=O (stereo not given),-4.3,·,·,i,
CN1C(=O)NC(c2ccccc2)C2=C1CN(Cc1ccccc1)C2=O (stereo not given),-2.5,·,·,i,
CCOC(=O)OC(C)OC1=C(C(=O)Nc2ccccn2)N(C)S(=O)(=O)c2ccccc21 (stereo not given),-5.1,·,·,i,
C#CCOCCOCCOCCNc1nc(N2CCN(C(=O)CCCCCCCCCCNC(=O)[C@H](CO)n3cc(CCCSC)nn3)CC2)nc(N2CCN(C(=O)CCCCCCCCCCNC(=O)[C@H](CCCCN)n3cc(C[C@@H](C)CC)nn3)CC2)n1,126.6*,·,·,i,

# A portion of the library (hit frequency here may not be typical).
